gsp agonist = qHTS for Agonist of gsp, the Etiologic Mutation Responsible for Fibrous Dysplasia/McCune-Albright Syndrome: qHTS; Potency, µM (titrated, usually from 76.9 µM), for the others: top-dose activation (cAMP increase), hits mostly activators; gsp mutant cells, cAMP HTRF, 30 min; control for the full effect not named in the record; hit rate 0.13% among 340,000; AID 624287, 2012; active = well fitted activation curve with a large enough effect; inconclusive = small, poorly fitted or top-dose-only effect, or another doubt; inactive = no such curve, though single readings can be large or run the other way; cell line not stated here;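 note: phosphodiesterase inhibitor Ro 20-1724 added with compounds to block cAMP breakdown; potency is the fitted concentration of half-maximal effect; nearly all actives have a fitted effect of over 60% in size; about a fifth of the inactives were tested at one dose only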
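Cells stably selected in G418 were plated at 2000/well, grown 16-24 hr, then given compounds in DMSO with the PDE inhibitor […] (300 uM solution added) for 30 min at 37C; cAMP was read by HTRF.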
Menin MLL FP FL = qHTS Assay for Inhibitors Targeting the Menin-MLL Interaction in MLL Related Leukemias: Competition With Fluorescein Labeled MLL-derived Peptide; 290,000 tested, under 10 active; Fluorescence polarization, fluorescein-MLL peptide displacement from menin; FP activity change, % at 61.4 µM; inconclusive = falling polarisation curve, or a change in total fluorescence; inactive = total fluorescence flat and polarisation flat or rising; no compound was filed as active; the % refers to the polarisation; negative = inhibition;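 note: % of control where 0% means no effect; inhibitors lower the polarisation; unlabelled MLL peptide was the positive control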
Sfp inh = qHTS Assay for Inhibitors of Bacillus subtilis Sfp phosphopantetheinyl transferase (PPTase); 4'-phosphopantetheinyl transferase ffp (Bacillus subtilis), Q9F4F7; Biochemical Sfp PPTase activity, qHTS; Potency, µM, for the others: max response, negative = inhibition, actives largely listed as inhibitors; hit rate 3.5% among 310,000; active = well fitted inhibition curve with a large enough effect; inconclusive = small, poorly fitted or top-dose-only effect, or another doubt; inactive = no such curve, though single readings can be large or run the other way;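 note: the enzyme is Sfp with the accession as filed and its product quenches rhodamine fluorescence; potency is the fitted concentration of half-maximal effect; 0% = enzyme reaction without inhibitor and -100% = no enzyme wells; top concentration of the series not given in the record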
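Sfp 15 nM + cpd, 15 min RT; start w/ rhodamine-CoA 5 uM, BHQ-2-YbbR 12.5 uM (final); 50 mM Hepes pH 7.6, 10 mM MgCl2, 0.01% NP-40, 0.01% BSA; read 525/598 nm at 0 and 30 min.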
PINK1 expr mod = A Quantitative High throughput Screen to Identify Chemical Modulators of PINK1 Expression | AID 624263, 2012 | PINK1 immunofluorescence, high-content cytometry, 24 h | Potency, µM (doses to about 76.6 µM), without a hit: at the highest dose activation (PINK1 increase), usual class: activators | hit rate 0.2% among 410,000; active = well fitted activation curve with a large enough effect; inconclusive = small, poorly fitted or top-dose-only effect; inactive = flat fitted curve, though single readings scatter; cell line not stated here;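 note: potency is the fitted concentration of half-maximal effect; % of control where 0% means no effect; nearly all actives have a fitted effect of over 65% in size; a mitochondrial uncoupler was the plate control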
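Fluorescence from anti-PINK1 antibody, together with nuclear and cell stains, was scanned on a laser-scanning cytometer. Before staining, stable-line cells were incubated 24 hours with compounds at 5 concentrations; primary antibody 12 h at 10 degrees C.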
D2 ag = Beta-Arrestin HTS for Positive Allosteric Modulators of the Human D2 Dopamine Receptor: Agonists. D(2) dopamine receptor (Homo sapiens), P14416. DiscoveRx PathHunter D2 beta-arrestin, luminescence, 90 min; 100% = 57 uM dopamine signal. activation, % (concentration not given with the values). hit rate 0.084% among 360,000. AID 624465, 2012; in the data active = activation above about 40%; inconclusive = about 15% to 40%; inactive = below about 15%; note: compound concentration not given in the record; the text of the record calls up to 30% inactive
Target sequence (P14416 whole entry, looked up): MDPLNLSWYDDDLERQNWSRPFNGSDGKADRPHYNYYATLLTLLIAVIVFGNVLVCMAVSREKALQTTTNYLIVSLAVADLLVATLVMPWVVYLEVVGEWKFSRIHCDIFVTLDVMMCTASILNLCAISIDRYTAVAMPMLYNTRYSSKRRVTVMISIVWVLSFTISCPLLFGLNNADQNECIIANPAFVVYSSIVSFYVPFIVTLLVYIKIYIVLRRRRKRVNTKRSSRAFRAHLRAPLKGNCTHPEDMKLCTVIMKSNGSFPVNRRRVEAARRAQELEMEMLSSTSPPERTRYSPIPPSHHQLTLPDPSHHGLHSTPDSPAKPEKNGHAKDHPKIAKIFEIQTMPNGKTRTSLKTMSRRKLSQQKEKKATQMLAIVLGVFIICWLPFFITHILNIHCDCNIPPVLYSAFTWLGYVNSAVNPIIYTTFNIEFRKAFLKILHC
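Agonist mode: compounds alone added to overnight-plated D2 PathHunter cells for 90 min at 37 C, with 57 uM final dopamine (EC100) defining full response. Beta-arrestin recruitment detected by chemiluminescent reagent, read after 1 h at ambient temperature.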
gsp antagonist = qHTS for Antagonists of gsp, the Etiologic Mutation Responsible for Fibrous Dysplasia/McCune-Albright Syndrome: qHTS | hit rate 0.4% among 340,000 | AID 624288, 2012 | Potency, µM (highest dose often 76.9 µM), for the others: top-dose activity change, negative = inhibition, hits mostly inhibitors | gsp-mutant cells, cAMP HTRF, 30 min; control for the full effect not named in the record; active = falling curve of any shape with a large fitted effect; inconclusive = falling curve, mostly with a smaller effect; inactive = flat or rising curve; cell line not stated here;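 note: intracellular cAMP measured with PDE inhibitor Ro 20-1724 present during compound exposure; potency is the fitted concentration of half-maximal effect; % is set by controls: 0 for no effect and ±100 for the full control effect; nearly all actives have a fitted effect of over 65% in size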
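HTRF cAMP read-out (cAMP-d2 plus anti-cAMP antibody-K in lysis buffer, 30 min RT). Before lysis, cells are exposed to compounds with […] for 30 min at 37C in DPBS containing Ca/Mg, BSA and Tween 20.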
ClpP mod = qHTS Assay for Activators of ClpP | ATP-dependent Clp protease proteolytic subunit (Bacillus subtilis (strain 168)), P80244 | purified B. subtilis ClpP, FRET peptide cleavage, 20 min | Potency, µM (highest dose often 57.5 µM), without a hit: at the top dose activity change, negative = active | hit rate 1.9% among 340,000; active = well fitted falling curve with a large enough effect; inconclusive = small, poorly fitted or top-dose-only effect; inactive = no such curve, though single readings can be large or run the other way; note: potency is the fitted concentration of half-maximal effect; the source files actives as falling curves though it sought activators and does not explain the sign; nearly all actives have a fitted effect of over 65% in size; many hits overshoot -100%
Target sequence (P80244 whole entry, looked up): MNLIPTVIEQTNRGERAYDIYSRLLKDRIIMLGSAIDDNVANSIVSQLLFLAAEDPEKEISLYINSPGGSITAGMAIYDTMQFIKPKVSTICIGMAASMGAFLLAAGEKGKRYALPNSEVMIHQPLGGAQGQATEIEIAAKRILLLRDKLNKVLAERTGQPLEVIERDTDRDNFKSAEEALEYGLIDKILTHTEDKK
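Buffer: 100 mM Tris/HCl pH8, 100 mM KCl, 0.05% low protease BSA, 2.5% glycerol, 0.01% Tween-20. ClpP 10 microg/mL final; 20 min RT; delta FRET normalized to ADEP and DMSO controls.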
An asterisk follows results filed as active; ? = inconclusive; . = no result given; [ ] = dose if it differs, or a comment.

SMILES	gsp agonist	Menin MLL FP FL	Sfp inh	PINK1 expr mod	D2 ag	gsp antagonist	ClpP mod
O=C(NCc1ccc(F)cc1)C1CCCN(C(=O)Nc2ccc(F)cc2)C1 (configuration not stated)	2.6%[15.4 µM]	0.8	13.3%	0.6%	-1.4	8.2%	.
C[C@@H]1CCCN1[C@H]1CS(=O)(=O)N[C@@H]1COCc1ccccc1	.	.	.	-0.5%	-3.8	.	-5.5%
Fc1cccc(F)c1-c1nc2c(s1)CCc1onc(-c3ccc(Br)cc3)c1-2	.	.	.	0.0%	-1.9	?	-10.1%
CCOC(=O)C1=C(C)NC(=O)NC1/C=C/c1ccccc1OC (configuration not stated)	-9.0%[15.4 µM]	-2.2	18.7%	-1.5%	-0.6	-4.8%	.
Cc1cnc(N)nc1-c1ccccc1	-15.4%	.	.	1.0%	4.1	.	-5.3%
CCCc1c(CC)c(=N)c2ccccc2n1C	?	0.0	-15.8%	2.4%[38.3 µM]	-2.3	7.7%	28.2µM*
O=C1c2ccccc2S(=O)(=O)N1CC1CC(c2ccc(Cl)cc2)=NO1 (configuration not stated)	-41.1%[inhibitor]	-0.6	2.6%	19.5%	4.1	-24.6%	-1.0%
O=C(CSc1ncccn1)N1CCCCCC1	-21.4%	.	.	0.1%	-1.8	12.7%	1.3%
CCCCCn1c(SC(C)C(C)=O)nc2c1c(=O)[nH]c(=O)n2C (configuration not stated)	1.6%	-0.1	25.2%	-1.4%	5.0	-5.6%	-2.7%
Cc1cccc(N2CC(C(=O)Nc3ccc(S(=O)(=O)N4CCOCC4)cc3)CC2=O)c1C (configuration not stated)	10.3%[15.4 µM]	0.3	17.6%	-1.0%	-0.4	-3.3%	.
CCOC(=O)c1sc2ncnc(NCc3ccco3)c2c1C	?	15.3	-25.9%	1.8%	-3.7	-6.7%	-29.4%
CC(C)(CNCc1ccccc1)NS(=O)(=O)c1ccc(Cl)cc1	7.7%[15.4 µM]	.	.	4.0%	-4.2	9.3%	2.0%
C/C=C(\C)C(=O)Nc1cccc(C2=NOC3(C2)C[C@H](C(N)=O)N(C(=O)C(c2ccccc2)c2ccccc2)C3)c1 (some centres not stated)	.	1.1	-18.2%	0.0%	3.5	-11.5%	-1.4%
COc1ccc2ccccc2c1/C=N/NC(=O)CC1(C)OCCCO1	3.4%	3.3	11.1%	2.0%	-5.5	3.5%	-2.9%
N#Cc1ccc(CN2CCN(C(=O)CC(NC(=O)c3ccccc3)c3ccccc3)CC2)cc1 (configuration not stated)	-26.1%	.	8.6%	6.1%	-0.4	-5.3%	.
Cc1ccccc1N(C(=O)CS(=O)CC(=O)Nc1ccc(F)cc1)C(C)C(=O)NC(C)(C)C (configuration not stated)	?	2.1	15.0%	-2.2%	-2.3	6.2%	.
O=C(O)c1ccc(-n2c(-c3cc(C4CC4)[nH]n3)n[nH]c2=S)cc1	24.7%[15.4 µM]	1.9	56.2µM*	-0.3%	-3.5	11.8%	.
COc1ccc(NS(=O)(=O)c2ccc3nc(COc4ccc(Cl)c(C)c4)[nH]c3c2)cc1	8.9%	3.3	36.2%[activator]	5.8%	8.5	4.2%	-27.9%
CCN1C(=O)C(C(=O)NC(C)c2ccccc2)C2CC1(C)Oc1ccccc12 (configuration not stated)	35.5%	-1.5	4.9%	0.1%	-4.7	-2.7%	-1.0%
Cc1ccc(CNC(=O)[C@@H](NC(=O)C2CCN(C(=O)[C@@H](N)CC(C)C)CC2)C(C)C)cc1	.	2.8	10.6%	-0.7%	-3.9	6.0%	-1.1%
COc1ccccc1/C=C/CN1CCNC(=O)C1CC(=O)NCCc1cnccn1 (configuration not stated)	0.3%[15.4 µM]	.	21.4%	1.6%	-3.8	9.5%	-2.4%
COc1cc(C(=O)NCc2nnc(SCC(=O)Nc3nc4ccccc4s3)o2)cc(OC)c1OC	-3.1%	?	?	6.0%	2.9	8.4%	0.7%
CC(/C=C/c1ccc2c(c1)OCO2)=N/NC(=O)c1ccncc1	-0.1%	-0.7	4.6%	0.1%	-2.6	-7.3%	0.6%
N#C/C(=C\C=C\c1ccccc1)c1nc(-c2ccc(Cl)cc2)cs1	-0.5%	?	9.7%	1.1%	-7.8	1.9%	1.7%
COC(=O)c1ccc(NC(=O)COc2ccc([N+](=O)[O-])cc2)cc1	-1.5%[15.4 µM]	-1.4	3.2%	7.2%	-6.9	6.0%	0.3%

The listing continues:
SMILES	gsp agonist	Menin MLL FP FL	Sfp inh	PINK1 expr mod	D2 ag	gsp antagonist	ClpP mod
COC(=O)c1ccc(NC(=O)COC(=O)C2=NN(c3ccccc3)C(=O)CC2)cc1	8.6%	.	.	0.3%	7.4	-1.9%	-2.9%
Cc1nnc(NC(=O)c2sc3nc(-c4cccs4)cc(C(F)(F)F)c3c2N)s1	?	?	-0.9%	-1.1%	-5.0	-21.1%	-6.8%
O=c1c2ccccc2ncn1Cc1ccc(Cl)c(Cl)c1	7.0%	-2.2	-11.8%	19.2%	-3.1	-12.7%	-0.6%
COc1cccc(NC(=O)C2CCCN(S(C)(=O)=O)C2)c1 (configuration not stated)	-35.1%[inhibitor]	0.9	8.2%	1.0%	-2.7	6.9%	.
CCCCN(C(=O)Cn1nnc2ccccc21)C(C(=O)NCCOC)c1cccs1 (configuration not stated)	-31.3%	0.8	4.8%	-0.8%	-2.1	13.0%	0.7%
CN(CC(=O)Nc1ccc(F)c(F)c1F)C(=O)C1CC(=O)N(c2ccc3c(c2)OCCO3)C1 (configuration not stated)	-29.2%	.	.	1.5%	-1.2	5.3%	-6.8%
CSc1nnc([C@H](Cc2c[nH]c3ccccc23)NC(=O)OC(C)(C)C)o1	0.8%[15.4 µM]	-3.4	1.7%	0.8%	0.7	-20.4%	0.3%
CCOCCCNCC(=O)Nc1ccc(S(=O)(=O)NC(C)CC)cc1 (configuration not stated)	8.4%[15.4 µM]	1.7	11.0%	1.2%	-1.4	9.0%	0.5%
Cc1ccc(C2CC2c2n[nH]c(=S)n2-c2ccc(Cl)cc2)cc1 (configuration not stated)	30.5%	-0.8	20.3%	4.2%[38.3 µM]	5.7	-20.0%	0.0%
O=c1cc(N2CCC3(CC2)OCCO3)[nH]c(=O)n1C1CCCCC1	2.1%	2.0	-7.4%	7.3%	-4.0	-7.1%	-2.9%
CCn1cc(S(=O)(=O)N2CCCC2)cn1	13.2%	.	8.1%	1.6%	-3.0	2.1%	-0.2%
O=C(CCC(=O)N1CCN(S(=O)(=O)c2ccc(Cl)cc2)CC1)Nc1ccc2ccccc2c1	10.4%	-0.1	1.6%	1.3%	1.4	-4.1%	0.5%
CCOCCCNC(=O)C(NC(=O)c1cnccn1)c1ccc(C)cc1 (configuration not stated)	-11.6%	1.0	20.1%	-1.5%	0.2	8.8%	-0.1%
CCOC(=O)/C(=N\Nc1ccc(OC)cc1)c1csc(Nc2ccccc2)n1	-16.0%	2.5	1.7%	.	-0.6	-5.9%	42.1%
O=C(O)c1[nH]c2ccccc2c1CC(=O)N1CCN(c2ccccc2)CC1	-11.3%	1.5	3.9%	-0.1%	2.1	-7.6%	.
Cc1csc2ncc(C(=O)Nc3ccccc3Cl)c(=O)n12	-18.9%	0.6	14.7%	-0.5%	1.3	9.5%	-13.2%
CCCNC(=O)NNC(=O)c1cc(-c2ccc3c(c2)OCO3)nc2ccccc12	-7.1%[15.4 µM]	.	5.8%	-0.4%	-1.1	5.4%	-8.8%
O=C(Nc1ccc(Cl)cc1Cl)c1ccc2c(=O)n3c(nc2c1)CCC3	5.4%[15.4 µM]	.	.	2.6%	-8.4	-10.6%	-1.9%
COc1ccccc1CNC(=O)C1Cc2cc(S(=O)(=O)N3CCCC3)ccc2N1C(C)=O (configuration not stated)	?	5.6	13.4%	0.3%	-2.9	-18.6%	0.0%
O=C(Nc1ccc(Br)cc1)c1csc(-c2ccncc2)n1	12.2%[15.4 µM]	10.8	4.3%	1.2%	-3.2	?	.
CN1C(=O)c2cccc(NC(=O)Cc3ccccc3)c2C1=O	5.3%	-2.2	-14.1%	0.3%	-0.1	5.9%	5.0%
Cc1cc(SCC(=O)NC2CC2)nc2ccccc12	22.0%[15.4 µM]	.	.	4.9%	-4.6	14.9%	-0.5%
CCN(c1ccccc1)S(=O)(=O)c1cc(C(=O)NCC(c2ccco2)N2CCCCC2)ccc1C (configuration not stated)	-29.9%[15.4 µM]	.	.	?	-7.1	-24.5%	0.2%
CCc1c(C)nc2ncnn2c1Nc1ccc(C)c(C)c1	-2.5%	1.4	18.4%	-1.5%	-0.6	-12.6%	-0.7%
CCN(CC(=O)Nc1ccc(OC)cc1)CC(=O)Nc1sc2c(c1C(=O)OC)CCCC2	-15.4%	.	.	2.2%	-2.3	-15.2%	?

(further entries)
SMILES	gsp agonist	Menin MLL FP FL	Sfp inh	PINK1 expr mod	D2 ag	gsp antagonist	ClpP mod
Cc1nc(Oc2ccccc2)c2oc3ccccc3c2n1	0.0%	0.8	-12.3%	0.9%	-2.4	-4.3%	-1.5%
CCC(CC)C(=O)c1c[nH]c(C(=O)NCCc2ccccn2)c1	9.6%	1.3	9.4%	-1.4%	-1.9	-3.4%	-1.0%
CCn1c(N2CCN(C(=O)C34CC5CC(CC(C5)C3)C4)CC2)nc2ccccc21	14.2%	5.2	-11.7%	-2.9%	-1.1	?	-4.8%
O=C(COc1coc(CN2CCc3ccccc32)cc1=O)Nc1ccccc1	-0.7%[15.4 µM]	.	.	7.2%	?	-11.5%	0.5%
Cc1ccc(Cn2cc(SCC(=O)Nc3nccs3)c3ccccc32)cc1	3.1%	5.8	?	7.0%	-6.4	5.0%	-2.1%
O=C(N/N=C/c1c(Cl)cccc1Cl)c1ccc(-n2cnnn2)cc1	-18.1%	.	.	3.5%	-0.6	6.1%	-1.3%
Cc1ccc(CN2CC(C(=O)NCC(=O)Nc3c(C)cccc3C)CC2=O)cc1 (configuration not stated)	-10.2%	.	.	-0.6%	-3.3	-2.1%	-1.0%
